PrP 5UTR inh: suppresses PrP 5' UTR mRNA reporter expression; inhibition, % (no concentration beside the values); AID 488862; hit rate 0.35% among 340,000; cell-based PrP 5' UTR mRNA reporter, plate reader;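 active = every replicate at 50% or more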;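 note: 0 = median of the neutral control wells; tested in H4 reporter cells; numbers are from one replicate; inactives centre near -14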
Sa RN4220 lethal: S. aureus RN4220 growth inhibition. OD600, 16 h. inhibition, % (no concentration beside the values). hit rate 0.33% among 330,000. AID 1259311;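 active = z-score of -3 or lower and OD600 up to 0.18 on both plates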;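 note: plate controls were untreated cells for no effect and reference antibiotic for full effect; stock transfer was 100 nL into about 80 µL; one replicate is shown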
BJeLR viability: kills HRASV12-expressing BJeLR cells; AID 1554; inhibition, % (concentration not given with the values); hit rate 0.17% among 300,000; BJeLR (HRASV12) viability, CellTiter-Glo ATP luminescence, 48 h; reference of the scale not given here;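 active = replicate mean above 50%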;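 note: 50 nL library stock added to about 25 µL; numbers are from one replicate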
Mtb hypoxia inh: Mtb hypoxia fluorescent reporter inhibition | M. tuberculosis hypoxia-regulated fluorescent reporter, fluorescence | fluorescence inhibition, % (concentration not given with the values) | hit rate 0.1% among 300,000 | AID 1159583;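 active = 35 to 45% if threefold the growth effect, above 45% if 1.5-fold the growth effect; inactive = the rest, general growth blockers included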;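 note: wells of about 50 µL received 100 nL stock; 0% = vehicle wells and 100% = reference inhibitor wells; whole bacteria with a GFP reporter of the hypoxia response; strong numbers were not always called active; many hits fall short of the cut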
Sa ugtP lethal: compounds lethal to S. aureus RN4220 ugtP deletion mutant; growth inhibition, % (test concentration not listed); hit rate 0.54% among 330,000; OD600 growth, 16 h; some inactives read as strong as hits;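 active = z-score under -3 and OD600 up to 0.15 on both plates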;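 note: plate controls were untreated wells for no effect and antibiotic for full effect; wells of about 80 µL received 100 nL stock; the first replicate is given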
Autofluor counter: flagged as autofluorescent in microsphere protease counterscreen; compound autofluorescence counterscreen, microsphere flow cytometry; hits give high values; fluorescence intensity (test concentration not listed); hit rate 3.1% among 360,000;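 active = at least 3 SD above the mean of all compounds, about 16000 in these data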;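 note: 100 nL of 1 mM stock went into each well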
Mtb hypoxia inh growth: recorded beside Mtb hypoxia inh, whose call it bears; growth inhibition, %; measured here: M. tuberculosis growth (absorbance);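 0% = vehicle and 100% = reference antibiotic; read after six days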
Starred values were filed as active, the others as inactive; . = not tested or not shown.

Fields: PrP 5UTR inh	Sa RN4220 lethal	BJeLR viability	Mtb hypoxia inh	Mtb hypoxia inh growth	Sa ugtP lethal	Autofluor counter
> CCOC(=O)c1cccc(S(=O)(=O)N(CCO)Cc2cc3cc(OC)c(OC)cc3[nH]c2=O)c1
→ -44	3.6	0	2	5	1	24123*
> COc1cc(/C=N/NC(=O)c2cccnc2)ccc1OC(=O)c1ccc2c(c1)OCO2
→ -24	.	-3	.	.	.	4281
> O=C(NNC(=O)c1ccccc1Br)c1cccc(Cl)c1
→ .	2.1	-1	4	0	-10	8252
> Cc1ccnc(NC(=O)Nc2ccc(F)cc2)c1
→ -85	10	-9	10	7	-8	3263
> COc1ccc(C(=O)Nc2ccc(-c3ccc(NC(=O)c4ccc(OC)cc4)c(OC)c3)cc2OC)cc1
→ -10	3.1	-9	12	-1	2	1955
> CCOc1ccccc1C1C(C(N)=O)=C(C)Nc2nc(-c3ccccc3Cl)nn21 (stereo unspecified)
→ -5	6.4	0	10	11	9	3270
> O=C(Cn1nnc(-c2ccc(CN3CCOCC3)cc2)n1)N(c1ccccc1)c1ccccc1
→ -12	1.7	8	3	4	11	3322
> COc1ccc([N+](=O)[O-])cc1NC(=O)Cc1noc2ccccc12
→ 6	3.0	-24	10	0	9	4801
> CCN1C(=O)C2C(C1=O)N1C(c3ccccc3)C3C(=O)N(CC)C(=O)C3N1C2c1ccccc1 (stereo unspecified)
→ 4	3.1	4	.	.	4	3449
> CN=C1CC(C)(C)CC(=O)/C1=C(/O)CCC(=O)NC
→ -4	-1.7	3	.	.	5	3522
> O=C(Nc1ccc(N2CCN(Cc3ccccc3)CC2)cc1)c1cccnc1
→ -22	-9.0	-4	16	11	-2	3350
> CN(C(=O)c1ccc(NC(=O)Cc2ccc(NC(=O)C3CCCN(C(=O)C4CCCC4)C3)cc2)cc1)C1CC1 (stereo unspecified)
→ 4	1.8	.	19	4	6	4120
> CC1=NN(c2ccccc2)C(=O)/C1=C/C=C/c1ccccc1
→ -14	-0.7	20	11	13	-11	2481
> O=C1NCCCCC1NC1CC(=O)N(c2ccccc2)C1=O (stereo unspecified)
→ -25	2.0	.	-5	1	-4	2478
> COc1ccc(C2=C(C)C(N3CCN(C(=O)c4ccco4)CC3)=NS2(=O)=O)cc1
→ -12	1.5	-2	17	13	3	6437
> CC(=NNc1cccc(Cl)c1)c1ccc(-n2ccnc2)cc1
→ .	-0.5	.	0	2	4	.
> CC(CCc1ccco1)NC(=O)Cn1nc(Cc2ccncc2)c2ccccc2c1=O (stereo unspecified)
→ -13	11	4	0	1	19	4344
> CC1CC1C(=O)OCC(=O)Nc1cc(S(=O)(=O)N2CCCCC2)ccc1Cl (stereo unspecified)
→ -23	2.8	.	8	9	7	7607
> COc1cc(OC)cc(C(=O)NNC(=O)C(CCC(N)=O)NS(=O)(=O)c2ccc(Cl)cc2)c1 (stereo unspecified)
→ -10	4.9	.	3	6	4	3609
> Cc1c(OCC(=O)N2CCN(c3ccccc3)CC2)ccc2c3c(c(=O)oc12)CCCC3
→ -7	3.2	-3	3	10	3	5976
> C(/C=C/c1ccccc1)=NNc1nc2ccccc2[nH]1
→ .	3.6	.	0	1	-9	.
> COc1ccc(OCCCCc2c(C)n[nH]c2C)cc1
→ -25	8.4	-12	16	3	4	4236
> Cc1nnc(NC(=O)C2CC(=O)N(Cc3ccccc3)C2)s1 (stereo unspecified)
→ -72	-0.4	-6	-1	-2	5	6093
> Cc1ccccc1NC(=S)NC(NC(=O)CF)C(Cl)(Cl)Cl (stereo unspecified)
→ -7	-0.6	6	-7	6	4	2162
> O=[N+]([O-])c1cc(C(F)(F)F)cc([N+](=O)[O-])c1NCCNC(=S)Nc1cccc(F)c1
→ -25	34	16	-1	5	-11	5796
> O=C(COC(=O)c1ccc2c(c1)OCO2)Nc1cccc(F)c1
→ -25	4.0	.	12	-1	8	3691
> Cc1cccc(NC(=O)CCC(=O)NN=Cc2ccco2)c1
→ .	3.3	.	-4	1	0	.
> CC(C)N(c1ccccc1)c1ccc(NC(=O)COC(=O)CCN2C(=O)c3cccc([N+](=O)[O-])c3C2=O)cc1
→ -2	-1.6	9	7	-1	-12	1960
> COc1ccc(-c2n[nH]c(=S)n2-c2ccc(C)cc2C)cc1
→ -2	4.3	-7	1	-2	2	3630
> O=C1C2C(c3ccccc3)CC=CC2[C@H](c2ccoc2)N1Cc1ccccc1 (stereo partly specified)
→ -8	.	1	.	.	.	2806
> NC(=S)n1[nH]c(-c2ccc([N+](=O)[O-])cc2)c(N=Nc2ccccc2[N+](=O)[O-])c1=O
→ -11	-0.5	.	-4	0	-7	4338
> CCOc1cc(N2CCOCC2)c(OCC)cc1NC(=O)[C@H](C)N1C(=O)C2CC=CCC2C1=O (stereo partly specified)
→ -6	9.8	-4	10	21	4	4090
> CCOC(=O)c1cnc2c(Cl)cccc2c1NCCN1CCOCC1
→ -7	6.5	2	-2	2	3	9747
> COc1ccc(C2N(c3cc(Cl)ccc3OC)C(=O)C3CCCN32)cc1 (stereo unspecified)
→ -34	1.4	-3	.	.	7	5961
> Nc1ccc(CCc2ccccn2)cc1
→ -23	1.9	.	7	8	6	3764
> Cc1ccc(NC(=O)CSc2ccccc2)cc1S(=O)(=O)N1CCCCC1
→ -3	-0.3	.	5	6	0	3893
> COCc1cc(=O)n2[nH]cc(-c3ccsc3)c2n1
→ -21	6.6	-8	10	7	3	3386
> O=S(=O)(Nc1cc(S(=O)(=O)N2CCOCC2)ccc1NCC1CCCO1)c1ccccc1F (stereo unspecified)
→ -8	5.1	.	14	-3	2	3838
> COc1ccc(-c2c3c(=O)n(C)c(=O)n(C)c3cn2N2CCOCC2)cc1
→ -11	2.8	-4	9	7	4	4257
> CN(C(=O)CSc1nnc(-c2ccc(C(C)(C)C)cc2)n1C)C1CCS(=O)(=O)C1 (stereo unspecified)
→ -4	-4.3	.	-10	6	-5	4058
> CCc1nc(NCCCCCO)c2nnn(Cc3ccccc3F)c2n1
→ 0	6.1	-2	14	8	0	3112
> CC1(C)CC(=O)C2=C(C1)OC(N)=C([N+](=O)[O-])C2c1cccs1 (stereo unspecified)
→ -14	3.6	-7	-3	0	12	2777
> Cc1nc2cc(O)ccc2n1C
→ -8	6.7	-5	8	7	6	3559
> Cc1ccc(CCNc2ccccc2)c[n+]1[O-]
→ -24	-2.7	-10	-6	-7	-4	8979
> COc1ccc(NC(=O)CSc2nc(C)cs2)cc1
→ -27	-3.1	3	-3	12	-11	4309
> c1coc(CNc2ncnc3sc4c(c23)CCCCC4)c1
→ -12	3.1	-1	-7	1	-3	2876
> CC(C)(C)NC(=O)NC(=O)COC(=O)c1ccc2c(c1)S(=O)(=O)N=C1CCCCCN12
→ -8	3.8	-12	2	10	3	2111
> COc1ccccc1C(=O)N=C1SC2CS(=O)(=O)CC2N1c1ccccc1 (stereo unspecified)
→ -10	-0.7	0	9	1	2	3994
> CCOc1ccc(N/C=C/C(=O)c2ccccc2)cc1
→ -2	1.5	22	-8	7	0	3950
> COc1cc(CN(C)C(=O)C(=O)c2c[nH]c3ccccc23)ccc1O
→ -18	4.2	.	7	8	1	3024

Next records.
Fields: PrP 5UTR inh	Sa RN4220 lethal	BJeLR viability	Mtb hypoxia inh	Mtb hypoxia inh growth	Sa ugtP lethal	Autofluor counter
> O=c1cc(O)sc2ccccc12
→ -36	3.2	-11	.	.	-2	2377
> c1ccc(C2CN3CCC2CC3)cc1 (stereo unspecified)
→ .	3.0	3	5	7	1	.
> COc1ccccc1C1=NOC(C)(c2nnc(Cc3ccccc3)o2)C1 (stereo unspecified)
→ -16	0.3	6	3	12	-12	3623
> O=C(Nc1nnc(-c2cccnc2)o1)c1cccc([N+](=O)[O-])c1
→ .	13	0	1	9	8	.
> COC(=O)CCCC(=O)NC1CC(C)(C)Cc2c1cnn2-c1ccc(C)cc1 (stereo unspecified)
→ -6	4.3	-4	-4	-5	9	4191
> CC(C)=C(NC(=O)c1ccccc1)C(N)=O
→ -7	3.9	-1	-1	-3	7	6434
> COc1ccccc1C(=O)N/C(=C/c1ccc2c(c1)OCO2)C(=O)Nc1cccc(C(=O)O)c1
→ -19	3.6	-10	15	2	6	4426
> N#CCSc1nc2ccccc2c(=O)n1CCCC(=O)NCC1CCCO1 (stereo unspecified)
→ -13	9.4	-6	11	0	5	4294
> CCOC(=O)Cn1nnnc1CN(Cc1cccs1)Cc1cc2cc(C)cc(C)c2[nH]c1=O
→ -17	2.5	3	1	9	-11	23938*
> Cc1ccc(NC(=O)CSc2cccc3cccnc23)c(C)c1
→ -14	-3.5	-2	2	0	0	3790
> CC(OC(=O)c1ccc(S(=O)(=O)NCc2ccco2)cc1)C(=O)Nc1ncc(Cl)cc1Cl (stereo unspecified)
→ -6	11	-12	8	7	-4	2555
> Cc1nn(Cc2ccc(C(=O)n3cccn3)o2)c(C)c1Br
→ -24	2.3	-10	8	12	-1	3805
> CCOc1cc(C(=O)NC(C)C2CCCO2)cc(OCC)c1OCC (stereo unspecified)
→ 14	10	8	4	8	2	3504
> Cc1nn(-c2ccccc2)c(Cl)c1C(=O)OC(C)C(=O)Nc1ccc2c(c1)OCO2 (stereo unspecified)
→ -4	1.8	1	.	.	10	3566
> COc1ccccc1C(=O)NCC(=O)NN=C(C)Cc1ccccc1
→ .	3.3	.	1	0	3	.
> COc1cccc(CNC(=O)CN2C(=O)COc3ccc(S(=O)(=O)N4CCCCCC4)cc32)c1
→ -10	5.8	-2	-5	-11	4	4341
> O=c1nc(-c2ccccc2)cc(-c2ccccc2)[nH]1
→ -6	0.7	10	7	8	-5	4235
> Cc1nc(SCC(=O)NCc2ccco2)c2c3c(sc2n1)CCCC3
→ -8	4.0	-6	9	17	24	3321
> Cc1cc(C)n(Cc2ccc(C(=O)Nc3ccc(Br)cc3C)o2)n1
→ 0	4.0	2	7	-2	6	2043
> COc1ccc(NC(c2ccccc2F)P(=O)(Oc2ccccc2)Oc2ccccc2)cc1 (stereo unspecified)
→ -19	2.8	3	8	3	-8	2106
> Cc1ccc(CCN2CC(C(=O)NC3CCCC3)CC2=O)cc1 (stereo unspecified)
→ 0	0.3	-11	13	0	8	2747
> CCC(=O)c1c(OCc2ccccc2)ccc2c(C)cc(=O)oc12
→ .	8.1	3	7	-1	12	.
> O=C(Cc1ccc(F)cc1)Nc1nc(-c2ccc(F)c(F)c2)cs1
→ -6	-15	4	1	5	16	3898
> O=C(O)c1ccccc1OCCN1CCCC1=O
→ 0	0.4	9	-7	-8	7	3680
> CC1=C(C#N)C(c2ccc(O)cc2)C(C#N)=C(C)N1
→ 3	3.1	8	6	-9	6	3303
> CCOC(=O)CC1=NN(c2ccccc2)C(=O)C1
→ -19	3.1	1	4	-7	-3	2572
> CCn1c(C(=O)O)c(CC(=O)Nc2ccccc2F)c2ccccc21
→ -27	4.5	3	17	7	6	2378
> CC(NC(=S)NNS(=O)(=O)c1cccc([N+](=O)[O-])c1)c1ccccc1 (stereo unspecified)
→ -21	6.8	5	6	6	4	5619
> CCOC(=O)c1c(NC(=O)CSc2nc3cccnc3n2C)sc(C(C)=O)c1C
→ -6	-1.9	-4	7	-3	-6	4250
> COc1ccc(-c2noc(-c3ccc(Cl)cc3)n2)cc1
→ .	-0.1	3	3	5	-3	.
> COc1ccc(NS(=O)(=O)c2cc(NC(=O)[C@H](C)NC(N)=O)ccc2N2CCCC2)cc1
→ -6	5.3	.	4	4	8	5610
> CC(C)CNS(=O)(=O)c1ccc(S(=O)(=O)N2CCN(C3CCCC3)CC2)cc1
→ -8	5.3	-9	12	4	3	6140
> CCOc1cc(S(=O)(=O)NCc2ccc3c(c2)OCO3)ccc1F
→ -7	0.2	3	.	.	4	2913

Full records from above.
CC(CCc1ccco1)NC(=O)Cn1nc(Cc2ccncc2)c2ccccc2c1=O (stereo unspecified) is entered as PrP 5UTR inh = -13; Sa RN4220 lethal = 11; BJeLR viability = 4; Mtb hypoxia inh = 0; Mtb hypoxia inh growth = 1; Sa ugtP lethal = 19; Autofluor counter = 4344
O=c1nc(-c2ccccc2)cc(-c2ccccc2)[nH]1 is entered as PrP 5UTR inh = -6; Sa RN4220 lethal = 0.7; BJeLR viability = 10; Mtb hypoxia inh = 7; Mtb hypoxia inh growth = 8; Sa ugtP lethal = -5; Autofluor counter = 4235

Screening data deposited in PubChem by several laboratories.
